Menin-MLL FL inh – inhibitors of human menin-MLL interaction, wild-type MLL peptide; Fluorescence polarization, fluorescein-MLL peptide displacement from menin; FP activity change, % at 61.4 µM; 290,000 tested, under 10 active; AID 1766; inconclusive = falling polarisation curve, or a change in total fluorescence; inactive = total fluorescence flat and polarisation flat or rising; no compound was filed as active; the % refers to the polarisation; negative = inhibition;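 further: % of control where 0% means no effect; inhibitors lower the polarisation; unlabelled MLL peptide was the positive control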
TRPV1 potentiator – human TRPV1 potentiation | Q8NER1 | TRPV1-expressing cells, Fluo-8 calcium influx, capsaicin EC20 potentiation; host cell line not named in the record; control for the full effect not named in the record | potentiation, % at 8.33 µM | hit rate 0.02% among 320,000 | AID 540277; active means potentiation above 80%; inconclusive means 30% to 80%; inactive means below 30%; further: 0% is about no effect
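Fluo-8 calcium influx in TRPV1-expressing cells, kinetic read (ex 480/em 520 nm). Compound added and read 3 min for agonist activity, followed by capsaicin at EC20 final and 2 min further read for enhancement.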
Sfp PPTase inh – Sfp phosphopantetheinyl transferase inhibition | Biochemical Sfp PPTase activity, qHTS | hit rate 3.5% among 310,000 | Q9F4F7 | Potency, µM, for inactives: max response, negative = inhibition, usual class: inhibitors | AID 1490; active means well fitted inhibition curve with a large enough effect; inconclusive means small, poorly fitted or top-dose-only effect, or another doubt; inactive means no such curve, though single readings can be large or run the other way;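 further: the enzyme is Sfp with the accession as filed and its product quenches rhodamine fluorescence; potency means the concentration at half of the fitted maximal effect; 0% = enzyme reaction without inhibitor and -100% = no enzyme wells; top concentration of the series not given in the record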
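After 15 min at room temperature with compound, 15 nM Sfp received 5 uM rhodamine-CoA plus 12.5 uM BHQ-2-ybbR (50 mM Hepes pH 7.6, 10 mM MgCl2). Rate came from the fluorescence difference over 30 min, ex 525/em 598 nm.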
ClpP mod – qHTS Assay for Activators of ClpP; ATP-dependent Clp protease proteolytic subunit (Bacillus subtilis (strain 168)), P80244; purified B. subtilis ClpP, FRET peptide cleavage, 20 min; Potency, µM (series often up to 57.5 µM), without a hit: at the top dose activity change, negative = active; hit rate 1.9% among 340,000; active = well fitted falling curve with a large enough effect; inconclusive = small, poorly fitted or top-dose-only effect; inactive = no such curve, though single readings can be large or run the other way; further: potency means the concentration at half of the fitted maximal effect; the source files actives as falling curves though it sought activators and does not explain the sign; nearly all actives have a fitted effect of over 65% in size; many hits overshoot -100%
Target sequence (P80244 whole entry, looked up): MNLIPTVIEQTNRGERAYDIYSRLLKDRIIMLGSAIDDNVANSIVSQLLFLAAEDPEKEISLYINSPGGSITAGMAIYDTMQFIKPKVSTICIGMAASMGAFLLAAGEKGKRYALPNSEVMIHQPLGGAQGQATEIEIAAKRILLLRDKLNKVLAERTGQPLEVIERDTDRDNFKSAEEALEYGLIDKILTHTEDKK
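Buffer: 100 mM Tris/HCl pH8, 100 mM KCl, 0.05% low protease BSA, 2.5% glycerol, 0.01% Tween-20. ClpP 10 microg/mL final; 20 min RT; delta FRET normalized to ADEP and DMSO controls.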
An asterisk follows results filed as active; u = inconclusive; x = not tested or not shown; & = joins results of further samples; [ ] = dose if it differs, or a comment. The list is partial; the hit share may differ from the screen's.

canonical_smiles	Menin-MLL FL inh	TRPV1 potentiator	Sfp PPTase inh	ClpP mod
Cc1ccc(S(=O)(=O)NC(=O)NC2CCCCC2)cc1	-8.0	x	3%	x
CN1CCO[C@H](c2ccccc2)c2ccccc2C1	0.4[24.8 µM]	x	18%	x
CNC1C(O)C2OC3OC(C)CC(=O)[C@@]3(O)O[C@H]2[C@H](NC)C1O (stereo partly drawn)	-1.1	x	-2%	x
COc1ccc(-c2cc(=S)ss2)cc1	-4.4	x	2%	x
C[C@@H](C(=O)O)c1ccc(C(=O)c2cccs2)cc1	-3.2[24.8 µM]	x	18%	x
C=C1c2cccc(O)c2C(O)=C2C(=O)[C@]3(O)C(O)=C(C(N)=O)C(=O)C(N(C)C)C3C(O)C12 (stereo partly drawn)	-2.3	x	-45%	x
Cc1c(Cn2ccnc2)c2ccccc2n1CCC(=O)O	-1.0	x	16%	x
CCCCC(=O)O[C@@]1(C(=O)CO)C(C)CC2C3CCC4=CC(=O)C=C[C@@]4(C)[C@]3(F)C(O)C[C@]21C (stereo partly drawn)	-0.9	x	2%	x
CCOC(N)=O	1.0	x	14%	x
CN=C(NC#N)Nc1ccc(C2=NNC(=O)C[C@@H]2C)cc1	-0.7	x	5%	x

The results go on.
canonical_smiles	Menin-MLL FL inh	TRPV1 potentiator	Sfp PPTase inh	ClpP mod
OC[C@@H](O)CN1CCN(c2ccccc2)CC1	-0.9[24.8 µM]	x	-4%	x
C#C[C@@]1(O)CC[C@@H]2[C@@H]3CCC4=CC(=O)CC[C@@H]4[C@H]3CC[C@]21CC	1.2[24.8 µM]	x	23%	x
CCOC(=O)[C@H](CCc1ccccc1)N[C@H]1CS[C@H](c2cccs2)CN(CC(=O)O)C1=O	-4.0	x	0%	x
CC(C)COC(=O)c1ccc(N)cc1	1.1	x	19%	x
CC(=O)OCC(=O)[C@@]1(O)CC[C@@H]2[C@H]3CCC4=CC(=O)C=C[C@]4(C)[C@]3(F)[C@@H](O)C[C@@]21C	-1.1[24.8 µM]	x	4%	x
COc1nccc(-c2c(-c3ccc(F)cc3)ncn2C2CCC(O)CC2)n1 (stereo not drawn)	-5.0	x	0%	x
C=CCn1c(=O)n(C2OC(CO)C(O)C2O)c2nc(N)[nH]c(=O)c21 (stereo not drawn)	-5.8	x	12%	x
CCNC(=O)NCc1cccc(Cl)c1	-2.7	x	14%	x
CC1CC2C3CCC4=CC(=O)C=C[C@]4(C)[C@@]3(Cl)C(O)C[C@]2(C)C1(OC(=O)c1ccco1)C(=O)CCl (stereo partly drawn)	3.1	x	3%	x
CCN(CC)C(=O)Nc1ccc(OC[C@H](O)CNC(C)(C)C)c(C(C)=O)c1	4.1	x	27%	x

Remaining list, next part:
canonical_smiles	Menin-MLL FL inh	TRPV1 potentiator	Sfp PPTase inh	ClpP mod
CC(=O)O[C@]1(C(C)=O)CC[C@@H]2[C@@H]3C=C(Cl)C4=CC(=O)[C@H]5C[C@@H]5[C@]4(C)[C@H]3CC[C@]21C	5.4[24.8 µM]	x	10%	x
C=CCN1CC(C(=O)N(CCCN(C)C)C(=O)NCC)CC2c3cccc4[nH]cc(c34)CC21 (stereo not drawn)	-9.8	x	13%	x
CCCCCCCCCCCCCCC[C@H](O)[C@@H](N)CO	-1.5	x	u	x
CCN(CC)CCNC(C(=O)OCCC(C)C)c1ccccc1 (stereo not drawn)	2.1	x	7%	x
NC(=O)C1(N2CCCCC2)CCN(CCCC(=O)c2ccc(F)cc2)CC1	0.8&0.4	x	14%&-20%	x
O=C(c1ccccc1)c1ccc2n1CC[C@H]2C(=O)O	2.2[24.8 µM]	x	26%	x
COc1c(O)cc2c(c1O)C1OC(CO)C(O)[C@H](O)[C@H]1OC2=O (stereo partly drawn)	-1.2	x	12%	x
CCCN1CCCC(c2cccc(S(C)(=O)=O)c2)C1 (stereo not drawn)	1.4	x	-16%	x
O=c1cc(O)c(Cl)c[nH]1	2.1	x	8%	x
CC[C@H](NC(C)C)[C@H](O)c1ccc(O)c2[nH]c(=O)ccc12	u	x	u	x

(list continues)
Labels used below – A = Menin-MLL FL inh; B = TRPV1 potentiator; C = Sfp PPTase inh; D = ClpP mod
C[C@H](N[C@@H](C)COc1ccccc1)[C@H](O)c1ccc(O)cc1
  A: u | B: x | C: 18% | D: x

Oc1ccc(/C=C\c2cc(O)cc(O)c2)cc1
  A: -4.8 | B: x | C: -3%&20% | D: x

Cc1cn(C2CC(O)C(CO)O2)c(=O)[nH]c1=O (stereo not drawn)
  A: 1.0 | B: x | C: 2% | D: x

CCCC[C@H](O)c1ccccc1
  A: -0.1 | B: x | C: 21% | D: x

CC(=O)Oc1ccc(C(=C2CCCCC2)c2ccc(OC(C)=O)cc2)cc1
  A: -1.9&4.1 | B: x | C: 7%&-4% | D: x

CCCOC(=O)c1ccc(N)cc1
  A: 6.3 | B: x | C: -6% | D: x

NC(CC(=O)Nc1ccc(Oc2cc(F)c(F)cc2Br)cc1)C(=O)O (stereo not drawn)
  A: -1.1 | B: x | C: -13% | D: x

C[C@H](O)CN(C)C
  A: -0.5 | B: x | C: 16% | D: x

CN[C@H]1[C@@H](O)[C@@H](NC)[C@@H]2O[C@@]3(O)C(=O)C[C@@H](C)O[C@H]3O[C@H]2[C@H]1O
  A: 0.2[24.8 µM] | B: x | C: 8% | D: x

C1CCC(C(C[C@@H]2CCCCN2)C2CCCCC2)CC1
  A: 1.7[24.8 µM] | B: x | C: 2% | D: x

CC(O)CNC(=O)C(=O)Nc1c2c(nn1-c1ccc(Cl)cc1)CSC2 (stereo not drawn)
  A: x | B: x | C: x | D: -2.5%

COc1ccc(CC(=O)Nc2c(C(=O)N3CCN(c4ccccc4F)CC3)oc3ccccc23)cc1OC
  A: x | B: x | C: x | D: -2.3%

O=C(CSc1nc2ccccc2n1Cc1cccc(Cl)c1)N1CCN(c2ccc(F)cc2)CC1
  A: x | B: x | C: x | D: 2.3%

CCCCN(CCCC)CC(O)c1cc(Cl)cc2c1-c1ccc(Cl)cc1C2=Cc1ccc(Cl)cc1 (stereo not drawn)
  A: x | B: x | C: x | D: -1.6%

CCCCn1cnc2cc(NCc3ccccc3Cl)ccc21
  A: x | B: x | C: x | D: -15%

COc1ccc(-c2cn3cccnc3n2)cc1NC(=O)c1cc(C)cc(C)c1
  A: x | B: x | C: x | D: 3.8%

COc1ccc(Cn2c(SCc3ccc(C(=O)NC4CCCC4)cc3)nc3ccncc32)cc1
  A: x | B: x | C: x | D: -2.6%

O=C(Cn1c(=O)n(Cc2ccco2)c(=O)c2oc3ccccc3c21)Nc1ccccc1
  A: x | B: x | C: x | D: 10%

Cc1cccc(N2CCN(C(=O)CCC(=O)NNc3nc4ccccc4c4nc(C)nn34)CC2C)c1 (stereo not drawn)
  A: x | B: x | C: x | D: -0.8%

O=C(CCCCCn1c(=O)c2sccc2n(CC(=O)Nc2cccc(Cl)c2)c1=O)NCc1ccc2c(c1)OCO2
  A: x | B: x | C: x | D: u

Cc1nc2c(-c3ccccc3)c(C)[nH]n2c(=O)c1Cc1ccc(Br)cc1
  A: x | B: x | C: x | D: u

COCCn1c(SCC(=O)Nc2ccc(F)c(Cl)c2)nc2c(oc3ccccc32)c1=O
  A: x | B: x | C: x | D: -17%

COc1ccc(-n2nc3c(N4CCCC(C(=O)NCc5ccccc5C)C4)nnc(C)c3c2C)cc1 (stereo not drawn)
  A: x | B: 1 | C: x | D: 28µM*

COc1cc(C(c2c(C)[nH][nH]c2=O)c2c(C)[nH][nH]c2=O)ccc1OC(=O)c1cccc(C)c1
  A: x | B: 19 | C: x | D: -3.2%

Quoted from the entries so far, 14 compounds:
Labels used below – A = Menin-MLL FL inh; B = TRPV1 potentiator; C = Sfp PPTase inh; D = ClpP mod
Cc1c(Cn2ccnc2)c2ccccc2n1CCC(=O)O
  A: -1.0 | B: x | C: 16% | D: x

CCCCC(=O)O[C@@]1(C(=O)CO)C(C)CC2C3CCC4=CC(=O)C=C[C@@]4(C)[C@]3(F)C(O)C[C@]21C (stereo partly drawn)
  A: -0.9 | B: x | C: 2% | D: x

CCOC(N)=O
  A: 1.0 | B: x | C: 14% | D: x

CN=C(NC#N)Nc1ccc(C2=NNC(=O)C[C@@H]2C)cc1
  A: -0.7 | B: x | C: 5% | D: x

OC[C@@H](O)CN1CCN(c2ccccc2)CC1
  A: -0.9[24.8 µM] | B: x | C: -4% | D: x

C#C[C@@]1(O)CC[C@@H]2[C@@H]3CCC4=CC(=O)CC[C@@H]4[C@H]3CC[C@]21CC
  A: 1.2[24.8 µM] | B: x | C: 23% | D: x

CCOC(=O)[C@H](CCc1ccccc1)N[C@H]1CS[C@H](c2cccs2)CN(CC(=O)O)C1=O
  A: -4.0 | B: x | C: 0% | D: x

CC(C)COC(=O)c1ccc(N)cc1
  A: 1.1 | B: x | C: 19% | D: x

CC(=O)OCC(=O)[C@@]1(O)CC[C@@H]2[C@H]3CCC4=CC(=O)C=C[C@]4(C)[C@]3(F)[C@@H](O)C[C@@]21C
  A: -1.1[24.8 µM] | B: x | C: 4% | D: x

COc1nccc(-c2c(-c3ccc(F)cc3)ncn2C2CCC(O)CC2)n1 (stereo not drawn)
  A: -5.0 | B: x | C: 0% | D: x

C=CCn1c(=O)n(C2OC(CO)C(O)C2O)c2nc(N)[nH]c(=O)c21 (stereo not drawn)
  A: -5.8 | B: x | C: 12% | D: x

CCNC(=O)NCc1cccc(Cl)c1
  A: -2.7 | B: x | C: 14% | D: x

CC1CC2C3CCC4=CC(=O)C=C[C@]4(C)[C@@]3(Cl)C(O)C[C@]2(C)C1(OC(=O)c1ccco1)C(=O)CCl (stereo partly drawn)
  A: 3.1 | B: x | C: 3% | D: x

CCN(CC)C(=O)Nc1ccc(OC[C@H](O)CNC(C)(C)C)c(C(C)=O)c1
  A: 4.1 | B: x | C: 27% | D: x

Screens as filed in PubChem.
